miR-21 FLuc: qHTS Assay for Modulators of miRNAs and/orActivators of miR-21. HeLa miR-21 FLuc reporter, luciferase, 48 h. Potency, µM (series often up to 38.3 µM), for the others: top-dose reporter change, positive = more light. 340,000 tested, under 10 active. AID 2288, 2010; active = well fitted rising curve with a large enough effect; inconclusive = small, poorly fitted or top-dose-only effect; inactive = no such curve, though single readings can be large or run the other way;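 also: % of control where 0% means no effect; miR-21 action dims this reporter so a rising signal means less miR-21 action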
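Compounds were titrated across several concentrations (up to approximately 40 uM) and incubated 48 hours with HeLa miR-21-FLuc reporter cells (miR-21 target sequence downstream of FLuc, endogenous miR-21). Readout was firefly luciferase luminescence after lytic detection reagent.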
Rango-impB inh: qHTS Assay for Inhibitors of Rango (Ran-regulated importin-beta cargo) - Importin beta complex formation. Importin subunit beta-1 (Homo sapiens), Q14974. Rango CFP/YFP FRET sensor + importin beta, 45 min. Potency, µM (doses to about 92.2 µM), for inactives: at the highest dose inhibition of complex formation. actives 0.031% (n = 340,000). AID 540263, 2011; active = rising FRET ratio curve, often small or poorly fitted; inconclusive = mostly compound fluorescence or quenching in the first reads; inactive = flat curves in all reads;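 also: potency is read from the fitted curve at half-maximal effect; 0% = DMSO wells and 100% = buffer wells lacking importin beta; nearly all actives have a fitted effect of over 15% in size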
Target sequence (Q14974 whole entry, looked up): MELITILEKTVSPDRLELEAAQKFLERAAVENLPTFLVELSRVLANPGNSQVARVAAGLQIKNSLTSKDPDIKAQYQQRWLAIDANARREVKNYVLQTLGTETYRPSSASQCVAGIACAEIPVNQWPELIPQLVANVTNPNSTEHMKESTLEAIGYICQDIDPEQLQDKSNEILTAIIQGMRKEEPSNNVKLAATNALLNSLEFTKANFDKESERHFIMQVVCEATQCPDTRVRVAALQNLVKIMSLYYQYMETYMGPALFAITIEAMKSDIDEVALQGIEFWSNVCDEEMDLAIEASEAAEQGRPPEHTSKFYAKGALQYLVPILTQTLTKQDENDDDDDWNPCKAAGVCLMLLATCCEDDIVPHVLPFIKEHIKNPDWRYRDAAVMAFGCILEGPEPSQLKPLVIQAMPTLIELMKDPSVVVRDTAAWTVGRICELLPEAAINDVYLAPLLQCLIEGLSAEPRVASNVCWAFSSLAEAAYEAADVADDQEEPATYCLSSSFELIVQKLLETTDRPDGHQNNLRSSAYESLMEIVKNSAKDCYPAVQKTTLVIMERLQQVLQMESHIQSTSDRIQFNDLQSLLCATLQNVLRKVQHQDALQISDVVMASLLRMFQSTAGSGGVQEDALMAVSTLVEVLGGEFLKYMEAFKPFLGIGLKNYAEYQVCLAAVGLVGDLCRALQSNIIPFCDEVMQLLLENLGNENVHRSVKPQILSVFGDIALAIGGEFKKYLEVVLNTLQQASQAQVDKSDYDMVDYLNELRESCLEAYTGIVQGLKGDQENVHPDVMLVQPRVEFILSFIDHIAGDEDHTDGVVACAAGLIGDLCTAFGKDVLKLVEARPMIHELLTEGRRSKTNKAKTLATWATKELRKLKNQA
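FRET biosensor Rango (snurportin 1 IBB between N-terminal EYFP and C-terminal Cerulean), 50 nM in PBS/1 mM DTT/0.02% Tween-20/0.1% BSA, preincubated 5 min RT with compound; 0.125 microM importin beta added, 45 min RT, CFP/YFP FRET ratio read.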
GLA inh pH 4.5: qHTS Assay for Inhibitors of Human alpha-Galactosidase at pH 4.5 | Alpha-galactosidase A (Homo sapiens), P06280 | purified enzyme, 4-MU-alpha-Gal fluorescence, pH 4.5 | activity change, negative = inhibition, % at 105 µM | 230,000 tested, under 10 active; inconclusive = small, poorly fitted or top-dose-only inhibition, or a rising curve; inactive = flat fitted curve, though single readings scatter; no compound was filed as active;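 also: 0% = full activity with enzyme and -100% = basal without enzyme; dose as in the result columns while the protocol names 77 µM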
Rango release inh: qHTS Assay for Inhibitors of RanGTP induced Rango (Ran-regulated importin-beta cargo) - Importin beta complex dissociation; Snurportin-1 (Homo sapiens) + GTP-binding nuclear protein Ran (Homo sapiens) + Importin …; actives 0.071% (n = 340,000); Potency, µM (doses to about 46.1 µM), inactives show at the highest dose activity change, negative = inhibition; Biochemical FRET Rango-importin beta, RanGTP-induced dissociation; active means falling FRET ratio curve, often poorly fitted, with flat reads before Ran was added; inconclusive means other falling curves, or compound fluorescence or quenching; inactive means flat or rising ratio curve;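 also: potency is read from the fitted curve at half-maximal effect; % of control where 0% means no effect; nearly all actives have a fitted effect of over 45% in size; -100% = wells without RanGTP and RCC1; the record marks most hits as doubtful in a second field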
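Compounds sat 5 min at room temperature with 0.1 uM Rango biosensor plus 0.25 uM importin beta, then FRET pre-read. RanGTP-RCC1 (0.6 uM Ran, 2mM GTP, 0.2 uM RCC1) added for 45 min, and the CFP/YFP post-read measured blocked complex dissociation.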
Starred values were filed as active, the others as inactive; ? = inconclusive; nt = not tested or not shown; & = joins results of further samples. This is a subset; count on the stated rates, not on these rows.

Screens in order: miR-21 FLuc	Rango-impB inh	GLA inh pH 4.5	Rango release inh
- O=C(c1cc(-n2cnnc2)ccc1Cl)N1CCN(c2nc(-c3ccccc3)cs2)CC1
  0%	-2.7%	7	-5%
- CCn1nc(C)c(NS(=O)(=O)c2ccccc2)c1C
  1%	1.5%	-3	8%
- COc1cccc(NC(=O)C(=O)NCCCn2ccnc2)c1
  -29%	-0.2%	6	5%
- O=C(O)c1ccc2c(=O)n(Cc3ccccc3)c(SCc3ccc([N+](=O)[O-])cc3)nc2c1
  0%	-2.6%	nt	-4%
- CC1=C(C)CC(C(=O)N2CCN(Cc3ccccc3)CC2)C(C(=O)O)C1 (configuration not stated)
  -13%	0.6%	-10	-17%
- COC(=O)CN(n1cnnc1)S(=O)(=O)c1ccc(C)cc1
  -1%	1.0%	-3	-10%
- COc1ccc(Nc2ncc(C(=O)N3CCN(Cc4ccccc4)CC3)c3ccccc23)cc1
  1%	?	-15	1%
- COc1ccc(CNC(=O)C/C(C)=N/NC(=O)COc2ccc(Br)cc2)cc1
  -3%	-3.1%	10	-8%
- CSc1ccccc1NC(=O)CN(C)CC(=O)NCc1ccccc1
  -6%	-2.9%	12	0%
- COc1cc2c(cc1OC)C1CCN3C(=O)CCC3N1CC2 (configuration not stated)
  nt	?	nt	-4%
- CCOc1cc(C2c3c(oc4ccccc4c3=O)C(=O)N2c2nccs2)ccc1O (configuration not stated)
  -4%	3.1%	-6	0%
- COc1ccc(C2NC(=O)c3ccccc3O2)c(OC)c1OC (configuration not stated)
  4%	-1.1%	nt	3%
- Cc1ccc(C(=O)COC(=O)CCC(=O)NC2CCCCC2)cc1C
  0%	0.6%	3	-1%
- Cc1nn(C)c(C)c1S(=O)(=O)N1CCc2ccccc21
  -3%	-1.9%	5	-3%
- COCCn1c(SCC(=O)NC2CC2)nnc1-c1ccco1
  6%	1.0%	nt	-6%
- O=C(CC1C(=O)NCCN1Cc1ccc(F)cc1)NCCOc1cccnc1 (configuration not stated)
  -1%	-1.1%	8	-11%
- Cc1ccccc1NC(=O)Cc1nc(COC(=O)c2ccc(NC(N)=O)cc2)cs1
  nt	?	nt	-2%
- O=C(COC(=O)/C=C/c1cccc(Cl)c1Cl)Nc1ccc2[nH]c(=O)[nH]c2c1
  nt	6.6%	nt	0%
- CC1CCC(NC(=O)C2CCN(c3cnccn3)CC2)CC1 (configuration not stated)
  -13%	-5.4%	-3	15%
- Cn1nc(CC(=O)NC2CCCCCC2)c2ccccc2c1=O
  9%	1.7%	-6	8%

Whole records as entered above. Values in the order: miR-21 FLuc | Rango-impB inh | GLA inh pH 4.5 | Rango release inh
Profile of `Cc1nn(C)c(C)c1S(=O)(=O)N1CCc2ccccc21` : -3% | -1.9% | 5 | -3%
Profile of `CC1CCC(NC(=O)C2CCN(c3cnccn3)CC2)CC1` (configuration not stated) : -13% | -5.4% | -3 | 15%

Carrying on.
Screens in order: miR-21 FLuc	Rango-impB inh	GLA inh pH 4.5	Rango release inh
- Cc1c(N=C2SC(CC(=O)Nc3ccccc3)C(=O)N2CCN2CCOCC2)c(=O)n(-c2ccccc2)n1C (configuration not stated)
  -4%	-0.2%	4	10%
- CC(=O)CS(=O)(=O)c1ccc(Oc2ccc(S(=O)(=O)CC(C)=O)cc2)cc1
  -5%	3.7%	-1	6%
- Cc1cc(-c2ccccc2)nc(Oc2cccc(C(F)(F)F)c2)c1S(C)(=O)=O
  0%	5.6%	-11	5%
- COc1ccc(C)cc1NC(=O)CSc1nc2ccccc2nc1N1CC(C)OC(C)C1 (configuration not stated)
  2%	3.2%	nt	4%
- Brc1ccc(Oc2ncc(CN3CCN(c4ccccc4)CC3)s2)cc1
  -3%	1.2%	12	-7%
- COCc1cc(C)nc(Nc2ccc(C)cc2C)c1C#N
  0%	?	-11	-1%
- Nc1cc(=O)n(Cc2ccccc2)c(=O)n1-c1ccc(F)cc1
  -9%	3.9%	-1	10%
- C=CCn1cnc2c(c1=O)c1nc3ccccc3nc1n2Cc1ccccc1
  8%	nt	6	nt
- COc1cccc(Cl)c1NC(=O)N1CCN(c2cc(C)nc3ccccc23)CC1
  -2%	-0.5%	-9	-7%
- COc1ccc(Cl)cc1NC(=O)CN1CCc2ccccc2C1
  -4%	-1.9%	nt	-13%
- O=C(CCCN1CCOCC1)c1ccc2c(c1)OCCO2
  -28%	-0.1%	4	-13%
- N#Cc1ccccc1OCC(=O)OCC(=O)NC1CCCCC1
  nt	2.3%	nt	22%
- Cc1ccc(N(C(=O)c2csnn2)C(C(=O)NC2CCCCC2)c2cccnc2)cc1C (configuration not stated)
  -6%	0.1%	nt	4%
- O=C(Cc1cc(C(=O)O)c2ccccc2n1)Nc1ccccc1
  ?	1.4%	-4	11%
- CCCC1=Nc2cc(C(=O)NCCN3CCCC3)ccc2Sc2ccccc21
  10%	0.0%	nt	8%
- Cc1ccc(C)c(C(=O)CC2(O)C(=O)N(C)c3ccccc32)c1 (configuration not stated)
  1%	?	-15	1%
- CCOC(=O)C[C@H]1c2ccc(C(F)(F)F)cc2S(=O)(=O)N1c1ccccc1
  nt	-4.3%	nt	1%
- CCOc1nc(N(C)C)nc(-n2nnc(C(C)=O)c2C)n1
  -6%	0.9%	-7	0%
- CC(C)c1cc2cc3ccc(=O)oc3cc2o1
  -39%	-1.1%	nt	28%
- COc1cccc(N(C(=O)c2snc(C(N)=O)c2N)C(C(=O)NCC2CCCO2)c2cccs2)c1 (configuration not stated)
  -10%	0.3%	nt	-14%

Among those listed so far, 2 contain a CF3 group.
Screens in order: miR-21 FLuc	Rango-impB inh	GLA inh pH 4.5	Rango release inh
- Cc1cc(-c2ccccc2)nc(Oc2cccc(C(F)(F)F)c2)c1S(C)(=O)=O
  0%	5.6%	-11	5%
- CCOC(=O)C[C@H]1c2ccc(C(F)(F)F)cc2S(=O)(=O)N1c1ccccc1
  nt	-4.3%	nt	1%

By substructure: those above with a furan ring, fused or not.
Screens in order: miR-21 FLuc	Rango-impB inh	GLA inh pH 4.5	Rango release inh
- COCCn1c(SCC(=O)NC2CC2)nnc1-c1ccco1
  6%	1.0%	nt	-6%
- CC(C)c1cc2cc3ccc(=O)oc3cc2o1
  -39%	-1.1%	nt	28%

Next part
Screens in order: miR-21 FLuc	Rango-impB inh	GLA inh pH 4.5	Rango release inh
- COc1ccc(CC(=O)Nc2cccc(C(=O)Nc3ccccc3C(=O)O)c2)cc1OC
  11%	-0.4%	nt	-4%
- O=C(CCc1nnc(C2(c3ccc(Cl)cc3)CCC2)o1)N1CCCC1
  -54%	0.3%	nt	-9%
- Cn1c(COc2ccccc2)nnc1SCC(=O)NCc1ccccc1
  0%	-5.1%	7	2%
- Cc1ccccc1CN(c1ccc(C(=O)N2CCN(C)CC2)cc1)S(C)(=O)=O
  nt	?	nt	-12%
- Cc1nc2ccccc2c(=O)n1/N=C/c1c(O)ccc2ccccc12
  18%	?	1	?
- N#C/C(C(=O)c1ccccc1)=C1/CCCN1
  -30%	1.1%	7	-8%
- Cc1ccc(C(=O)NNC(=O)C2CCN(c3nc(C)cc(C)n3)CC2)cc1
  -3%	0.3%	6	11%
- CC(=O)c1c(C)[nH]c(C(=O)COC(=O)c2cc(C)oc2C)c1C
  nt	-5.0%	nt	-5%
- O=C(NC1CCCC1)C(c1ccccn1)N(Cc1ccccc1F)C(=O)c1csnn1 (configuration not stated)
  -1%	-0.8%	nt	-5%
- COc1ccc(N2CCN(C(=O)C(Cc3ccccc3)NC(=O)c3ccccc3)CC2)cc1 (configuration not stated)
  nt	0.3%	nt	8%
- O=C(COc1ccccc1/C=C\c1nc(O)c([N+](=O)[O-])c(=O)[nH]1)Nc1ccccc1
  -25%	-6.5%	-7	1%
- CCCc1nc2oc3c(NCCN(C)C)ncnc3c2c2c1CCCC2
  4%	0.1%	-20	-20%
- CCOC(=O)C1(S(=O)(=O)c2ccccc2)CCN(Cc2ccc(Cl)cc2)CC1
  15%	-3.4%	-21	18%
- CC(C)N1CCN(Cc2cn[nH]c2C2CCCCC2)CC1CCO (configuration not stated)
  -1%	-3.5%	1	8%
- CCN(CC(=O)N1CCOCC1)S(=O)(=O)c1ccc2ccccc2c1
  0%	4.7%	nt	-17%
- CO/N=C/NC(=O)c1c(OC)ccnc1Oc1ccc(Cl)cc1
  -4%	3.7%	8	13%
- Cn1c(=O)c2c([nH]c(=S)n2Cc2ccc(Cl)cc2)n(C)c1=O
  4%	-0.8%	nt	-4%
- COc1ccc(Cl)cc1/C=C/c1ccc2cccc(O)c2n1
  -18%	0.0%	nt	-5%
- COc1ccc(NC(=O)c2cc(C)cc(C)c2)cc1[N+](=O)[O-]
  -2%	0.6%	6	-8%
- Cc1cc(C)n(-c2nc3ccccc3[nH]c2=O)n1
  -10%	-3.1%	?	3%
- O=[N+]([O-])c1cnccc1NC1CCCCC1
  -25%	-1.3%	nt	-4%
- CCOC(=O)C1CCCCN1Cc1cccc(Oc2ccccc2)c1 (configuration not stated)
  2%	-2.6%	nt	3%
- COc1ccc(NC(=O)C2CCN(S(=O)(=O)c3c(C)noc3C)CC2)cc1OC
  0%	0.0%	nt	17%
- Cc1ccc(Cn2ccc(NC(=O)c3cc(-c4ccc(Cl)cc4)on3)n2)cc1
  -5%	0.3%	-15	-6%
- Cc1ccc2c(c1)N(CC(=O)NCc1ccco1)C(=O)C(C(C)C)O2 (configuration not stated)
  4%	0.9%	1	-2%
- O=C(O)CCN1C(=O)/C(=C\c2ccc(-c3nc4ccccc4s3)o2)SC1=S
  -13%	?	-15	?
- O=C1/C(=C\c2ccco2)SC(=S)N1c1ccc(O)cc1
  -8%	0.2%	0	7%
- CCOc1ccc(NS(=O)(=O)c2ccc3[nH]c(=O)c(=O)[nH]c3c2)cc1
  0%	-0.1%	0	-4%
- Cc1ccccc1OCc1nnc(SCC(=O)O)n1-c1cccc(Cl)c1
  -2%	0.2%	nt	3%
- CCOC(=O)CSC1=NC(=O)CS1
  -8%	?	4	?
- COC(=O)CCCC(=O)Nc1ccc(Cl)c(Cl)c1
  -8%	-1.2%	2	-5%
- O=C(CCCN1C(=O)/C(=C/c2ccccc2)SC1=S)Nc1cccc(O)c1
  15%	-1.8%	-21	-12%
- CCN1CCN(C(=S)Nc2sc(C)c(-c3ccccc3)c2C(=O)OC)CC1
  -1%	2.3%	nt	-9%
- CCN1C(=O)C2(C(C#N)=C(N)Oc3n[nH]c(C(C)C)c32)c2ccccc21 (configuration not stated)
  -5%	0.1%	-6	3%
- Nc1nc(CSc2nc3ccccc3s2)nc(N2CCOCC2)n1
  -37%	-0.3%	10	-4%
- O=C(Nc1cccc(C(F)(F)F)c1)N1CCN(C(=O)Nc2cccc(C(F)(F)F)c2)CC1
  -2%	-5.6%	-3	-19%
- O=c1c2ccccc2nc2n1CCc1c-2[nH]c2ccccc12
  nt	0.4%	7&23	-12%
- COCCn1c(=NC(=O)CCS(=O)(=O)c2ccccc2)sc2cc(C)ccc21
  0%	?	nt	-7%
- O=C(NNC(=S)NC(=O)c1ccccc1)c1cccc([N+](=O)[O-])c1
  -2%	4.9%	nt	-13%
- CCOC(=O)[C@H]1[C@H]2COc3ccc(Cl)cc3[C@@H]2N2C(=O)CN(Cc3ccc(F)cc3)C(=O)[C@@]12C
  nt	0.0%	nt	-8%
- c1cncc(-c2csc(NCc3ccco3)n2)c1
  -32%	3.5%	6	1%
- O=C(COC(=O)c1cccc([N+](=O)[O-])c1)NNC(=O)c1cccs1
  nt	0.2%	nt	17%
- CCOC(=O)c1c(-c2cccc([N+](=O)[O-])c2)csc1NC(=O)CCCOc1ccccc1OC
  -3%	-0.6%	2	16%

Bioassay records from PubChem BioAssay.
